Compound activity: PubChem BioAssay, several laboratories
Sa RN4220 lethal – S. aureus RN4220 growth inhibition; OD600, 16 h; inhibition, % (no concentration beside the values); actives 0.33% (n = 330,000); AID 1259311;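 active = z-score of -3 or lower and OD600 up to 0.18 on both plates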;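 note: plate controls were untreated cells for no effect and reference antibiotic for full effect; stock transfer was 100 nL into about 80 µL; one replicate is shown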
BJeLR viability – BJeLR cell viability loss; BJeLR (HRASV12) viability, CellTiter-Glo ATP luminescence, 48 h; reference of the scale not given here; AID 1554; actives 0.17% (n = 300,000); inhibition, % (test concentration not listed);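 active = replicate mean above 50%; inconclusive = above 50% but judged a plate artefact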;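 note: 50 nL library stock added to about 25 µL; numbers are from one replicate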
Mtb hypoxia inh – Mtb hypoxia fluorescent reporter inhibition; actives 0.1% (n = 300,000); M. tuberculosis hypoxia-regulated fluorescent reporter, fluorescence; fluorescence inhibition, % (test concentration not listed);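 active = 35 to 45% if threefold the growth effect, above 45% if 1.5-fold the growth effect; inactive = the rest, general growth blockers included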;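 note: wells of about 50 µL received 100 nL stock; 0% = vehicle wells and 100% = reference inhibitor wells; whole bacteria with a GFP reporter of the hypoxia response; strong numbers were not always called active; many hits fall short of the cut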
Sa ugtP lethal – compounds lethal to S. aureus RN4220 ugtP deletion mutant; OD600 growth, 16 h; some inactives read as strong as hits; growth inhibition, % (test concentration not listed); actives 0.54% (n = 330,000); AID 1259309;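 active = z-score under -3 and OD600 up to 0.15 on both plates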;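 note: plate controls were untreated wells for no effect and antibiotic for full effect; wells of about 80 µL received 100 nL stock; the first replicate is given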
Bead autofluor – compound fluorescence in toxin protease inhibitor counterscreen; fluorescence intensity (concentration not given with the values); compound autofluorescence counterscreen, microsphere flow cytometry; hits give high values; actives 3.1% (n = 360,000);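 active = at least 3 SD above the mean of all compounds, about 16000 in these data; inconclusive = too few beads counted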;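 note: 100 nL of 1 mM stock went into each well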
PrP 5UTR inh – inhibition of PrP 5' UTR reporter expression; cell-based PrP 5' UTR mRNA reporter, plate reader; inhibition, % (concentration not given with the values); actives 0.35% (n = 340,000);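 active = every replicate at 50% or more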;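 note: 0 = median of the neutral control wells; tested in H4 reporter cells; numbers are from one replicate; inactives centre near -14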
Mtb hypoxia inh growth – further read-out of Mtb hypoxia inh, marked with its call; growth inhibition, %; measured here: M. tuberculosis growth (absorbance);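 0% = vehicle and 100% = reference antibiotic; read after six days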
Active calls of the source: *; ? = inconclusive; . = not tested or not shown.

SMILES	Sa RN4220 lethal	BJeLR viability	Mtb hypoxia inh	Mtb hypoxia inh growth	Sa ugtP lethal	Bead autofluor	PrP 5UTR inh
COCCN(Cc1ccccc1)C(=O)c1cc(-c2ccc(OC)c(OC)c2)nc2ccccc12	7.4	-2	-1	-7	15	5469	6
CC(=O)N1CCC(N(CCN2CCOCC2)C(=S)Nc2cc(C)ccc2C)CC1	-1.0	1	-3	12	6	2509	-54
CC1CCCCC1NC(=O)/C(C#N)=C/C=C/c1ccccc1[N+](=O)[O-] (stereo not given)	1.4	10	3	3	8	4039	-24
COc1ccc(OC)c(N(CC(=O)Nc2ccc(NC(C)=O)cc2)S(C)(=O)=O)c1	0.3	7	11	6	0	10662	-15
CCN(CC)S(=O)(=O)c1ccc2oc(Nc3ccc(OC)cc3)nc2c1	1.9	-10	17	8	-4	4096	-18
N=c1c(C(=O)NC2CCCC2)cc2c(=O)n3ccccc3nc2n1CCCN1CCOCC1	2.7	-3	12	5	3	5964	-21
CC(=O)/C=C1\N(C)c2ccc(C)cc2C1(C)C	6.8	5	-3	7	5	4525	-6
Cc1ccc2nc(Nc3ccc4[nH]c(=O)[nH]c4c3)c(-n3nc(C)cc3C)nc2c1	0.2	-8	-2	10	-4	10011	-57
Cc1ccc(CCNC(=O)CCn2c(=O)c3cccn3c3ccc(F)cc32)cc1	-5.1	9	2	3	-6	5808	-31
CCc1ccc(N(CC(=O)NC(C)(C)CC)C(=O)CCC(=O)Nc2nccs2)cc1	0.6	-3	-9	2	1	3970	-6
Cc1ccccc1OCCC(=O)NNC(=O)c1ccccc1F	5.7	.	33*	70*	9	3966	-27
O=C(NN=Cc1ccc(Br)s1)c1cccnc1	-1.1	.	-10	2	-1	.	.
CCOC(CNc1ncnc2c1cnn2C)OCC	4.9	25	-8	-13	4	4420	-28
O=C(O)CCNc1ccc(NCCC(=O)O)c2c1C(=O)c1ccccc1C2=O	.	10	.	.	.	2969	4
O=c1[nH]c(CN2CCN(C/C=C/c3ccccc3)CC2)nc2ccccc12	7.9	5	10	6	2	21675*	-20
O=C(Nc1ccccc1)N1CCC(O)(c2cccc(C(F)(F)F)c2)CC1	-5.3	13	-12	-12	-8	3983	2
N#CCCCCC#N	1.4	.	.	.	-10	5599	-4
CCC/C(=N\NC(=O)C1CCCC1)c1ccccc1	.	4	.	.	.	5681	-1
Cc1ccccc1NC(=O)c1cc(C(=O)c2cc(Cl)ccc2O)cn(-c2ccccc2C)c1=O	-5.1	8	-2	15	-13	2640	-25
CC(C)NC(=S)N/N=C1\CCCc2ccccc21	.	6	.	.	.	4470	-9
Cc1ccc(NC(=O)CNCc2ccccc2Cl)cc1S(=O)(=O)N(C)C	4.1	2	4	5	10	3652	-17
Cc1cc(SCC(=O)c2ccccc2)nc(C)n1	2.3	-10	.	.	-3	3222	-92
O=C(COC(=O)c1ccccc1[N+](=O)[O-])Nc1cccnc1Cl	5.7	-2	5	3	3	5958	2
O=C(CNC(=O)c1cccs1)N/N=C/c1cccc(Cl)c1	.	2	.	.	.	5859	-20

15 successive compounds out of the list so far, quoted:
SMILES	Sa RN4220 lethal	BJeLR viability	Mtb hypoxia inh	Mtb hypoxia inh growth	Sa ugtP lethal	Bead autofluor	PrP 5UTR inh
CCc1ccc(N(CC(=O)NC(C)(C)CC)C(=O)CCC(=O)Nc2nccs2)cc1	0.6	-3	-9	2	1	3970	-6
Cc1ccccc1OCCC(=O)NNC(=O)c1ccccc1F	5.7	.	33*	70*	9	3966	-27
O=C(NN=Cc1ccc(Br)s1)c1cccnc1	-1.1	.	-10	2	-1	.	.
CCOC(CNc1ncnc2c1cnn2C)OCC	4.9	25	-8	-13	4	4420	-28
O=C(O)CCNc1ccc(NCCC(=O)O)c2c1C(=O)c1ccccc1C2=O	.	10	.	.	.	2969	4
O=c1[nH]c(CN2CCN(C/C=C/c3ccccc3)CC2)nc2ccccc12	7.9	5	10	6	2	21675*	-20
O=C(Nc1ccccc1)N1CCC(O)(c2cccc(C(F)(F)F)c2)CC1	-5.3	13	-12	-12	-8	3983	2
N#CCCCCC#N	1.4	.	.	.	-10	5599	-4
CCC/C(=N\NC(=O)C1CCCC1)c1ccccc1	.	4	.	.	.	5681	-1
Cc1ccccc1NC(=O)c1cc(C(=O)c2cc(Cl)ccc2O)cn(-c2ccccc2C)c1=O	-5.1	8	-2	15	-13	2640	-25
CC(C)NC(=S)N/N=C1\CCCc2ccccc21	.	6	.	.	.	4470	-9
Cc1ccc(NC(=O)CNCc2ccccc2Cl)cc1S(=O)(=O)N(C)C	4.1	2	4	5	10	3652	-17
Cc1cc(SCC(=O)c2ccccc2)nc(C)n1	2.3	-10	.	.	-3	3222	-92
O=C(COC(=O)c1ccccc1[N+](=O)[O-])Nc1cccnc1Cl	5.7	-2	5	3	3	5958	2
O=C(CNC(=O)c1cccs1)N/N=C/c1cccc(Cl)c1	.	2	.	.	.	5859	-20

Next records follow.
SMILES	Sa RN4220 lethal	BJeLR viability	Mtb hypoxia inh	Mtb hypoxia inh growth	Sa ugtP lethal	Bead autofluor	PrP 5UTR inh
COCCCn1c(=S)[nH]c2sc3c(c2c1=O)CCCS3	1.4	7	1	10	11	5079	-7
COc1cccc(N2C(=O)Nc3ccc(Br)cc3C2(O)C(=O)NCCCOC(C)C)c1 (stereo not given)	2.9	-12	7	0	4	3498	-22
Cc1ccc(-c2nnc(SCC(=O)N(C)C)nc2-c2ccc(C)cc2)cc1	2.1	-16	0	14	19	4654	13
CCOC(=O)C1C(C(=O)OC)=C(C2=CCCCC2)c2ccccc2N1S(=O)(=O)C(F)(F)F (stereo not given)	2.6	.	8	0	31	3935	4
CC(=O)c1cc2c(cc1NC(=O)CN1CCC(Cc3ccccc3)CC1)OCO2	-1.2	-4	.	.	13	2393	-6
O=C(Cc1ccccc1F)Nc1ccc(Cl)nc1	-1.0	0	5	9	2	8562	-17
Cc1cc(SCc2ccc(Cl)cc2)nc(=O)[nH]1	-0.7	1	3	-10	2	5295	-19
CS(=O)(=O)N(CC(=O)Nc1ccc2c(c1)OCO2)Cc1ccc(Cl)cc1	-6.1	-3	.	.	-14	3341	-10
COc1ccc(CN(C)C(=O)CCN=C2NS(=O)(=O)c3ccccc32)c(OC)c1	3.1	.	3	1	1	3676	-11
COc1ccc(-c2cc(C(F)(F)F)n3nc(C(=O)NCCN4CCOCC4)cc3n2)cc1	-8.4	-12	9	9	8	3762	-25
COc1cc(C(C2C(=O)CC(C)(C)CC2=O)C2C(=O)CC(C)(C)CC2=O)cc(OC)c1OC	-0.2	4	6	2	15	3545	-17
CCOc1ccccc1/C=N/NC(=O)c1nnn(-c2nonc2N)c1CN1CCC(C)CC1	.	5	.	.	.	5506	-26
COc1cc(NS(=O)(=O)c2cc(C(=O)N3CCN(C(C)=O)CC3)ccc2OC)cc(OC)c1	4.2	-2	8	6	1	2210	-25
COCCN(C(=O)CCCC(=O)Nc1ccccn1)C(C(=O)NC1CCCC1)c1ccc(C)cc1 (stereo not given)	5.4	3	7	2	-1	3032	-12
CCN(CC(=O)NCCc1ccccc1)S(=O)(=O)c1ccc(C)cc1	-2.3	-11	3	4	2	2179	-13
O=C(Cn1cncn1)c1ccc(Cl)cc1	0.9	-2	-3	-2	5	3809	12
c1ccc2sc(NC3=NCN(C4CCCCC4)CN3)nc2c1	1.0	.	2	10	1	9927	-36
CCCCOCCCNC(=O)COc1ccccc1	7.2	-7	.	.	5	10157	-16
O=C(COC(=O)c1cccs1)NCCc1ccc(F)cc1	0.7	.	-5	6	4	5702	-14
Cc1ccc(C(=O)NCCCNC(=O)c2ccco2)cc1	1.6	6	7	10	2	3576	-31
Cc1ccc(C)c(NC2=NS(=O)(=O)c3ccccc32)c1	-4.7	8	-5	-13	-6	11458	-13
COC(=O)c1c(NS(=O)(=O)c2ccc(C)cc2)sc2c1CCC(C)C2 (stereo not given)	41	.	.	.	-1	5078	-9
N#Cc1cc(-c2ccccc2)nc(N2CCNCC2)n1	1.3	2	6	2	4	5941	-22
Cc1cccc(OCC(=O)NC2CCCCCC2)c1C	3.0	4	8	1	-6	4026	1
C/C(=N\N=C(c1ccccc1)c1ccccc1)c1cccs1	.	-10	.	.	.	8882	-12
O=C(Nc1ccc(S(=O)(=O)N2CCCCC2)cc1)c1ccc(CN2CCc3ccccc3C2)cc1	2.6	33	2	-3	1	2308	-3
CCCCCNC(=O)c1cc(S(=O)(=O)N2CCCCC2)ccc1F	4.0	6	14	5	-1	23121*	-5
CC(=O)Nc1ccc(C(=O)Cn2nnc3ccccc3c2=O)cc1	6.6	-6	9	8	10	18940*	-27
CCOc1ccc2c(c1)N(C(=O)CN1C(=O)CCC1=O)C(C)(C)C=C2C	1.1	-1	.	.	2	4853	-27
Cc1cc(C)cc(NC(=O)N2CCCCCCC2)c1	2.7	-4	2	-2	6	2525	-34
COc1cccc(CNC(=O)CCNC(=O)c2ccc(Br)o2)c1	3.4	-14	10	-2	4	5423	-20
COc1ccc(-c2cc(C(=O)N3CCN(C(c4ccccc4)c4ccccc4)CC3)no2)cc1	-4.6	12	6	7	19	11566	-21
CCCCOc1ccc(/C=C/C(=O)OCC(=O)N2CC(=O)Nc3ccccc32)cc1OCC	27	4	9	3	46	1947	-15
O=C1CSC(=Nc2ccccc2)N1	2.3	-6	.	.	5	.	-7
CCOc1ccccc1NC(=O)CSc1nnc(-c2cnccn2)n1C	4.3	3	12	0	12	?	-26
O=C(NCCCN1CCOCC1)c1cccc(S(=O)(=O)Nc2ccccc2Cl)c1	2.6	7	2	5	0	5156	-20
CCCc1cc(NCc2ccccn2)n2nc(C)c(-c3ccccc3)c2n1	-1.4	0	-5	7	-10	4062	-26
COc1ccc(CCNC(=O)c2cc3c(=O)n4ccccc4nc3n(CC3CCCO3)c2=N)cc1OC (stereo not given)	0.3	-1	.	.	-9	4966	-41
Cc1ccc(Nc2ncnc3sc(C)c(C)c23)cc1C	14	-10	3	4	-4	4202	-49
Cc1ccccc1OCC(=O)NCC1CCCO1 (stereo not given)	7.2	0	21	12	3	2739	-13
CCN(Cc1ccccc1)C(=O)c1cc2c(OC)c(OC)c(OC)cc2[nH]1	-3.8	-8	-6	-8	-1	4240	0
CCCCN(CCCC)CCNC(=O)c1cn(CC)c2ccc(S(=O)(=O)N(C)C3CCCCC3)cc2c1=O	0.4	14	5	13	6	5373	-14
CSc1ccc(CN2CCSCC2)cc1	3.2	8	7	8	13	3268	-22
O=C1CN(N=Cc2ccc([N+](=O)[O-])o2)C(=O)N1	11	.	-8	10	16	.	.
O=C1CC(=O)N(Cc2ccccc2)C(=O)N1CCCCCCN1C(=O)CC(=O)N(Cc2ccccc2)C1=O	.	9	.	.	.	5877	-5
CC(=O)Nc1ccc(NC(=O)CC(C)=NNC(=O)c2cccc3ccccc23)cc1	1.7	.	6	-4	2	.	.

Structural class: those above containing a CF3 group (3)
SMILES	Sa RN4220 lethal	BJeLR viability	Mtb hypoxia inh	Mtb hypoxia inh growth	Sa ugtP lethal	Bead autofluor	PrP 5UTR inh
O=C(Nc1ccccc1)N1CCC(O)(c2cccc(C(F)(F)F)c2)CC1	-5.3	13	-12	-12	-8	3983	2
CCOC(=O)C1C(C(=O)OC)=C(C2=CCCCC2)c2ccccc2N1S(=O)(=O)C(F)(F)F (stereo not given)	2.6	.	8	0	31	3935	4
COc1ccc(-c2cc(C(F)(F)F)n3nc(C(=O)NCCN4CCOCC4)cc3n2)cc1	-8.4	-12	9	9	8	3762	-25
